Bioassay records as filed in PubChem BioAssay.
H5N1 CPE: MDCK cell protection from H5N1 avian flu; cytopathic effect, luminescence, 72 h; hits give high values; no value below 0 was filed and about half of the inactive calls have no number; reference of the scale not given here; inhibition, % at 50 µM; 96,000 tested, 0.07% active; AID 740; in the data active means inhibition above about 25%
Numbers without * were called inactive; i = inactive. An excerpt (hit frequency here may not be typical).

compound | H5N1 CPE
CCSc1nc2ccccc2n1C(=O)c1ccc(S(=O)(=O)N2CCCCC2)cc1 | 0.7
CCOC(=O)C1CSC(CC(=O)Nc2ccc(Cl)cc2)C(=O)N1 (stereo unspecified) | i
Cc1ccc(S(=O)(=O)NCCCNC(=O)c2ccccc2)cc1 | 0.7
COc1cc(C(N)=O)cc(Br)c1OC | i
COC(=O)C1C(=O)NC(SC)=C(C#N)C1c1ccccc1 (stereo unspecified) | i
O=C(/C=C\Nc1ccc2c(c1)OCO2)c1ccccn1 | i
COc1ccc(CCNC(C)=O)cc1 | 0.7
CC(C)(CC(=O)O)Cc1nc(-c2ccc(Cl)cc2)no1 | i
CC1(C)CC2(CC(C)(C)N1)OC(=O)N1CCc3ccccc3C12C (stereo unspecified) | i
COc1ccccc1CC(=O)N1CCCc2ccccc21 | 1.2

Four of the compounds above, with each value named:
Compound: COc1ccc(CCNC(C)=O)cc1
  H5N1 CPE: 0.7
Compound: COc1ccccc1CC(=O)N1CCCc2ccccc21
  H5N1 CPE: 1.2
Compound: CCSc1nc2ccccc2n1C(=O)c1ccc(S(=O)(=O)N2CCCCC2)cc1
  H5N1 CPE: 0.7
Compound: COC(=O)C1C(=O)NC(SC)=C(C#N)C1c1ccccc1 (stereo unspecified)
  H5N1 CPE: i

The listing continues:
compound | H5N1 CPE
O=C(NCc1ccccc1Cl)C1CCN(C(=O)c2sccc2-n2cccc2)CC1 | 0.1
N#Cc1cc(C(=O)c2cc(Br)ccc2O)cn(C2CC2)c1=O | 4.5
O=C(CCn1cccc1)NC1CCCc2ccccc21 (stereo unspecified) | 0.8
COc1cc(CNC2CCCC2)cc(OC)c1OC | 0.4
O=C1c2ccccc2C(Nc2ccc(S(=O)(=O)N3CCOCC3)cc2)N1c1ccccn1 (stereo unspecified) | 4.1
CCCN(CCC)S(=O)(=O)c1ccc(NS(C)(=O)=O)cc1 | i
Cc1c(Cl)cccc1NC(=S)N1CCN(Cc2ccccc2)CC1 | 0.4
CC(=O)N(C)c1ccc(NS(=O)(=O)Cc2ccccc2)cc1 | i
O=C(Nc1ccon1)c1cc2ccccc2oc1=O | i
Cc1nc(-c2ccccc2O)n(-c2ccccc2)n1 | i

New compounds follow
compound | H5N1 CPE
CCc1nnc(NC(=O)CSc2nnc(Cc3cccn3C)n2C)s1 | i
COc1cc2c(=O)n(Cc3ccco3)c(=O)n(CC(=O)c3cccc(Br)c3)c2cc1OC | 0.2
CCN(CC)S(=O)(=O)c1ccc2c(c1)nc(SCc1nc3ccsc3c(=O)[nH]1)n2CC | 2.4
COC(=O)COc1ccc2occ(C(C)=O)c2c1 | 1.4
CN1/C(=C\C(=O)CN2C(=O)NC3(CCCCCC3)C2=O)C(C)(C)c2ccccc21 | i
Cc1oc(-c2ccccc2F)nc1CN1CCC(C(=O)NCc2cccs2)CC1 | i
O=S1(=O)CC(O)C(N2CCC(c3ccccc3)CC2)C1 (stereo unspecified) | 0.2
CCOc1ccccc1N/C=C(\C#N)c1nc2ccccc2n1C | 0.8
C=CCn1c(=O)c2ccccc2n2c(SCc3nnc(-c4ccccc4Br)o3)nnc12 | 2.5
CCOc1ccc2c(c1)nc(SCC(=O)c1cccs1)n2C | 0.2

New compounds follow
compound | H5N1 CPE
O=C(NCCN1CCOCC1)C1CCC(CNS(=O)(=O)c2ccc(Cl)cc2)CC1 (stereo unspecified) | i
C=CCNC(=S)Nc1sc2c(c1C(=O)OCC)CC(C(C)C)OC2 (stereo unspecified) | 1.9
CSc1nsc(/C=C/Nc2ccc(Cl)cc2)c1C#N | i
CCOC(=O)Cc1csc(NC(=O)COc2ccccc2OC)n1 | i
O=C1CC(C(=O)Nc2ncccn2)C(c2ccccc2)O1 (stereo unspecified) | i
O=c1[nH]c(=O)n(Cc2ccco2)c2c1C(C(F)(F)F)(C(F)(F)F)N=C(c1ccco1)N2 | i
Cc1ccc(-c2noc(C3CCCN(S(=O)(=O)c4ccc5ccccc5c4)C3)n2)o1 (stereo unspecified) | 0.2
CN(C)/C=C(\C#N)C(=O)c1cccc(Oc2ccc(Br)cc2)c1 | i
COc1ccc(CN2CCN(C(=O)COc3cccc(C)c3)CC2)c(OC)c1 | i
CCOC(=O)c1c(NC(=O)CSc2nnc(-c3cccnc3)o2)sc(C)c1C | 1.6

Next entries
compound | H5N1 CPE
CN(C)S(=O)(=O)c1cccc(C(=O)NCCc2ccccc2)c1 | i
CCOc1ccc(CCNS(=O)(=O)c2cnc[nH]2)cc1OCC | 1.9
Cc1cc(-c2c(C)[nH]n(-c3ccc(Cl)cc3)c2=O)n[nH]1 | 0.2
CCc1ccccc1NC(=S)N(CCN(C)C)C(C)c1ccccn1 (stereo unspecified) | 1.4
CCOC(=O)c1ccccc1Oc1c(F)c(F)nc(NCCO)c1F | 0.4
COc1ccc(Cl)cc1S(=O)(=O)NCc1cccs1 | 1.7
COCCNC(=O)NC1(C(F)(F)F)Oc2ccc(Cl)cc2O1 (stereo unspecified) | 4.9
CCN(CC)S(=O)(=O)c1cccc(C(=O)NCC2CCCO2)c1 (stereo unspecified) | 0.7
CC1(NC(=O)N2CCOCC2)CCS(=O)(=O)C1 (stereo unspecified) | i
CCOC(=O)c1sc(NC(=O)c2cccnc2)c(C#N)c1C | i

New compounds follow.
compound | H5N1 CPE
O=C(c1ccccc1F)N1CCN(S(=O)(=O)c2ccc(S(=O)(=O)N3CCCCC3)cc2)CC1 | 1.9
CCOC(=O)c1c(P(=O)(N2CCOCC2)N2CCOCC2)noc1N | 1.5
CN(CC(=O)Nc1cccc2ccccc12)c1ccc(S(=O)(=O)N2CCOCC2)cn1 | i
O=C(O)CCc1ccc(-c2cccs2)n1-c1ccc(C(=O)O)cc1 | 1.2
COc1cccc(-c2nnc(SCc3nc4ccccc4s3)n2C)c1 | 0.3
C=CCN1CN(S(=O)(=O)c2cccs2)c2nc3ccccc3nc21 | i
CCN(CC)C(=O)CSc1nnc(-c2cnccn2)n1-c1ccc(C)cc1 | i
Cc1cnn(-c2cc(N/N=C/c3ccccc3)ncn2)c1 | 0.4
COc1ccc(C2CC(c3ccccc3C)n3nc(N)nc3N2)cc1 (stereo unspecified) | 1.4
COc1ccccc1-n1c(O)c(C=NCCN2CCNCC2)c(=O)[nH]c1=O | 0.4

Going on with the list.
compound | H5N1 CPE
COc1cccc(-c2csc(N3CCN(C(=S)Nc4ccccc4OC)CC3)n2)c1 | i
Cc1cc(C)c(S(=O)(=O)NCC23C=CC(O2)C2C(=O)N(c4ccccc4)C(=O)C23)c(C)c1 (stereo unspecified) | 1.7
CCOC(=O)CC(=O)CSc1nc(-c2cccnc2)cc(C)c1C#N | 0.6
C=CCNC(=O)CSc1nnc(-c2cccs2)o1 | 0.6
COc1ccc(-n2ccnc2SCC(=O)Nc2ccc(OC)cc2OC)cc1 | 0.4
Cc1ccc(CN2CCSc3ccc(C(=O)N4CCN(c5ncccn5)CC4)cc32)cc1 | 1.3
COC(=O)C1Cc2c([nH]c3ccccc23)C(C)N1 (stereo unspecified) | i
N#Cc1c(NC(=O)CSc2ncnc3sccc23)oc(-c2ccco2)c1-c1ccco1 | 1.8
Cc1cccc(NC(=S)NN2CCN(C)CC2)c1 | 0.2
Cc1ccc(C2N(c3nccs3)C(=O)C3CCCN32)cc1 (stereo unspecified) | i

Following part:
compound | H5N1 CPE
CN1C(=S)SC(C)(C)C1NO (stereo unspecified) | 0.4
COc1ccnc(N2CCN(c3cccc(C(F)(F)F)c3)CC2)c1C#N | i
O=C(CP(=O)(c1ccccc1)c1ccccc1)Nn1cnnc1 | i
COC(=O)c1cc(Cl)c(NC(=O)c2cc(OC)c(OC)c(OC)c2)cc1OC | i
CN1CCc2cc3c(c4c2C1CC41CCC(=NO)CC1)OCO3 (stereo unspecified) | 0.9
CC1(C)NC(=O)N(CCCSc2ccc(Cl)cc2)C1=O | 1.1
Cc1ccc2c(c1)C1CN(C)CCC1N2C(=O)Nc1cccc(Cl)c1 (stereo unspecified) | i
Cc1ccc2[nH]c(=O)c(COC(=O)c3ccccn3)cc2c1 | 0.5
Cc1cnc(NC(=O)c2ccc(-c3nc4ccccc4s3)o2)s1 | 0.1
Cc1ccc2c(c1)-c1cc(C)nn1C(c1ccc3c(c1)OCO3)N2 (stereo unspecified) | 0.1

(cont.)
compound | H5N1 CPE
COCCCNc1nc(SCc2ccccc2)nc2sc3c(c12)CCC3 | 0.8
CCOC(=O)c1cn(-c2nc(-c3ccc(Cl)c(Cl)c3)cs2)c2c(F)c(N3CCOCC3)c(F)cc2c1=O | 0.8
Cc1nn(C)cc1/C=N\NC(=O)c1ccc2c(c1)c(C)c(C)n2Cc1ccccc1 | 0.1
CCOc1ccccc1N1CCN(C/C=C/c2ccc(N(C)C)cc2)CC1 | i
Cc1c(C#N)c(NC(=O)c2ccccc2)n(Cc2ccccc2)c1C | 0.1
CC1CCCC(C)N1CCCNC(=O)c1cc2c(=O)n(C)c3ccccc3c2n1C (stereo unspecified) | 2.8
CCNC(=O)O/N=C(\C)c1sc(-c2ccc(Cl)cc2)nc1C | i
COc1cccc(N2CCN(c3ncnc4c3cnn4-c3ccc(C)cc3C)CC2)c1 | i
COCCn1c(C)cc(C(=O)CN2C(=O)NC3(CCCCCCC3)C2=O)c1C | i
CCOC(=O)c1sc2c(c1C)C(c1cccs1)C1=C(CCCC1=O)N2 (stereo unspecified) | 1.1

Next part:
compound | H5N1 CPE
COc1cccc(OCCSc2nnc3sc4ccccc4n23)c1 | 3.2
N#CCO/N=C(\c1ccccc1)c1ccncc1 | 1.9
COc1ccc(N2CCN(S(=O)(=O)c3ccc(C(=O)NC4CCCC4)cc3)CC2)cc1 | i
COC(=O)c1cc(CN2CCN(c3ccccc3C)CC2)ccc1O | 0.1
CCCCC(=O)Nc1ccc(C(=O)NNC(=O)c2ccco2)cc1 | i
COc1ccccc1N1CCN(C(=O)c2cnn3cccnc23)CC1 | 0.9
CC(=O)Nc1nc(C)nc(-c2ccccc2)c1C(C)=O | i
CCOC(=O)c1sc(NC(=O)CSc2nccc(C)n2)c(C#N)c1C | i
COc1cc(C)c(S(=O)(=O)NC2CC(C)(C)NC(C)(C)C2)cc1C | i
COc1ccc(C)cc1S(=O)(=O)N(C)CC(N)=O | 0.6

(listing goes on)
compound | H5N1 CPE
CSc1cccc(NC(=O)c2ccc(Cl)nc2)c1 | i
Cc1cc(NC(=O)Cc2cccs2)nn1CC(=O)NCc1ccco1 | i
O=C1CCCN1CCC1CCN(C(=S)Nc2ccc(F)cc2)CC1 | 1.6
O=C(NN=C1CCCCCCC1)C(=O)NC1CCCCC1 | 1.5
Cc1ccc(NC(=O)CSCC(=O)O)c(C)c1 | i
CCn1c(SCC(=O)c2ccccc2)nc2c(c1=O)SC(C)C2 (stereo unspecified) | 1.1
COCCN1C(=O)c2ccccc2C(C(=O)N2CCN(c3ccccn3)CC2)C1c1ccc(F)cc1 (stereo unspecified) | 0.3
COCCOC(=O)C1=C(N)OC2=C(C(=O)CCC2)C1c1cccnc1 (stereo unspecified) | 1.1
O=C(Cn1nnc(-c2ccc(Cl)cc2)n1)NC1CCN(Cc2ccccc2)CC1 | i
COc1ccc(/C=N/n2c(SC)nnc(C(C)(C)C)c2=O)cc1 | 1.3

(listing goes on)
compound | H5N1 CPE
COc1cccc2cc(C(=O)N(C)C3CCN(C)CC3)c(=O)oc12 | i
O=C(CSCC(=O)N1CCN(c2ccccc2)CC1)Nc1nc(-c2ccc(Cl)s2)cs1 | i
Cc1ccc(S(=O)(=O)NCc2n[nH]c(=S)n2C)cc1 | 0.9
Cc1ccc(N=Cc2cc(C)n(C3CCCC3)c2C)cc1 | i
O=C(CN1C(=O)c2ccccc2C1=O)NCc1ccccn1 | 0.4
O=C(Nc1ccc(F)cc1)c1cc(S(=O)(=O)N2CCCCC2)cs1 | i
Cc1cccc(NC(=O)CN2C(=O)CNC2=O)c1 | 0.2
COc1ccccc1CN1C(=O)c2ccncc2C1=O | 0.0
Cc1c(N2C(=O)/C(=C/c3ccccc3)SC2=S)c(=O)n(-c2ccccc2)n1C | 0.5
COc1cccc(NC(=O)c2ccncc2)c1 | i

Some of the entries so far, as labelled records:
> O=C1CC(C(=O)Nc2ncccn2)C(c2ccccc2)O1 (stereo unspecified)
- H5N1 CPE: i
> O=c1[nH]c(=O)n(Cc2ccco2)c2c1C(C(F)(F)F)(C(F)(F)F)N=C(c1ccco1)N2
- H5N1 CPE: i

Going on with the list.
compound | H5N1 CPE
COc1cc(-c2cn(S(=O)(=O)c3cccc4nsnc34)nc2N)cc(OC)c1OC | 0.4
Cc1cc(C(=O)OCC(=O)N2CC(C)CC(C)C2)c(C)o1 (stereo unspecified) | 0.6
O=C(NCCc1ccccc1)c1ccc(Br)o1 | 0.7
N/C(Cc1ccc(Cl)cc1)=N\OC(=O)c1ccc2ccccc2c1 | i
Cc1c(C(=O)C(C)C)n(C)c2ccccc12 | 0.4
O=C(NCc1ccc2c(c1)OCO2)c1c(F)c(F)c(F)c(F)c1F | i
C=CCNC(=O)c1ccc(-c2nc(-c3ccc(Cl)c(Cl)c3)cs2)cc1 | i
CCCSc1cc(=O)n(-c2ccccc2)nc1C(=O)OCC | i
O=C(COC(=O)CCc1nc2ccccc2s1)Nc1cccc(S(=O)(=O)N2CCOCC2)c1 | 0.5
Cc1nn(Cc2ccccc2)c2sc(C(=O)N3CCN(Cc4ccc5c(c4)OCO5)CC3)cc12 | i

Additional structures follow.
compound | H5N1 CPE
O=C(CN1CCN(C2CCCCC2)CC1)NCCC1=CCCCC1 | i
CC(C)c1ccc(N=c2c([N+](=O)[O-])nn(-c3ccc4c(c3)OCCO4)n2O)cc1 | i
O=c1[nH]c(-c2cccnc2)nc2ccccc12 | 0.6
Cc1ccc(-c2nn(CCC(=O)O)cc2CCC(=O)O)cc1 | 1.4
C=CCNc1nc(SC)nc2ccsc12 | 0.6
